Rango release inh – qHTS Assay for Inhibitors of RanGTP induced Rango (Ran-regulated importin-beta cargo) - Importin beta complex dissociation; Biochemical FRET Rango-importin beta, RanGTP-induced dissociation; Potency, µM (titrated, usually from 46.1 µM), for the others: at the highest dose activity change, negative = inhibition; Snurportin-1 (Homo sapiens) + GTP-binding nuclear protein Ran (Homo sapiens) + Importin …; 340,000 tested, 0.071% active; active means falling FRET ratio curve, often poorly fitted, with flat reads before Ran was added; inconclusive means other falling curves, or compound fluorescence or quenching; inactive means flat or rising ratio curve;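 also: potency is read from the fitted curve at half-maximal effect; % of control where 0% means no effect; nearly all actives have a fitted effect of over 45% in size; -100% = wells without RanGTP and RCC1; the record marks most hits as doubtful in a second field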
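Rango (0.1 uM)–importin beta (0.25 uM) complex; RanGTP-RCC1 trigger; 45 min RT; CFP/YFP FRET read.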
miR-21 reporter – qHTS Assay for Modulators of miRNAs and/orActivators of miR-21 | HeLa miR-21 FLuc reporter, luciferase, 48 h | Potency, µM (series often up to 38.3 µM), without a hit: top-dose reporter change, positive = more light | 340,000 tested, under 10 active; active = well fitted rising curve with a large enough effect; inconclusive = small, poorly fitted or top-dose-only effect; inactive = no such curve, though single readings can be large or run the other way;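 also: % of control where 0% means no effect; miR-21 action dims this reporter so a rising signal means less miR-21 action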
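HeLa miR-21-FLuc reporter line, endogenous miR-21; 2000 cells/well in DMEM/10% FBS; compound titration up to ~40uM final, 48 h, 37 degree Celsius; luciferase detection reagent, 15 min lysis, CCD luminescence.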
GLA inh pH 4.5 – qHTS Assay for Inhibitors of Human alpha-Galactosidase at pH 4.5; AID 1467, 2008; 230,000 tested, under 10 active; purified enzyme, 4-MU-alpha-Gal fluorescence, pH 4.5; activity change, negative = inhibition, % at 105 µM; inconclusive = small, poorly fitted or top-dose-only inhibition, or a rising curve; inactive = flat fitted curve, though single readings scatter; no compound was filed as active;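 also: 0% = full activity with enzyme and -100% = basal without enzyme; dose as in the result columns while the protocol names 77 µM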
Target sequence (P06280 whole entry, looked up): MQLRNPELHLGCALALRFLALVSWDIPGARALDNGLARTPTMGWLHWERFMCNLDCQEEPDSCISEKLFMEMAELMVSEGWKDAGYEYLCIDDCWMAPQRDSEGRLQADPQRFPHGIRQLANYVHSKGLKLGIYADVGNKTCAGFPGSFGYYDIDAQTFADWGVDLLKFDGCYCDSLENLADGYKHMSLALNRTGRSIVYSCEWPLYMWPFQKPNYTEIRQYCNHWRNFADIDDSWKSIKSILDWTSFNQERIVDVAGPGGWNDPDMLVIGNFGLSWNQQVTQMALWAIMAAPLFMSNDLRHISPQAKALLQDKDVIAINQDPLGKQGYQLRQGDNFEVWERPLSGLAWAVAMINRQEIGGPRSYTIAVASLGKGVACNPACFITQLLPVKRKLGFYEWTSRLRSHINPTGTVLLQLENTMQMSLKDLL
Rango-impB inh – qHTS Assay for Inhibitors of Rango (Ran-regulated importin-beta cargo) - Importin beta complex formation. Potency, µM (titrated, usually from 92.2 µM), for inactives: top-dose inhibition of complex formation. AID 540263, 2011. Rango CFP/YFP FRET sensor + importin beta, 45 min. 340,000 tested, 0.031% active. Importin subunit beta-1 (Homo sapiens), Q14974; active = rising FRET ratio curve, often small or poorly fitted; inconclusive = mostly compound fluorescence or quenching in the first reads; inactive = flat curves in all reads;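 also: potency is read from the fitted curve at half-maximal effect; 0% = DMSO wells and 100% = buffer wells lacking importin beta; nearly all actives have a fitted effect of over 15% in size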
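FRET biosensor Rango (snurportin 1 IBB between N-terminal EYFP and C-terminal Cerulean), 50 nM in PBS/1 mM DTT/0.02% Tween-20/0.1% BSA, preincubated 5 min RT with compound; 0.125 microM importin beta added, 45 min RT, CFP/YFP FRET ratio read.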
* hit, by the source's call; ? = inconclusive; / = no result given; & = joins results of further samples. This is a subset, so the mix of outcomes need not match the whole.

Rango release inh | miR-21 reporter | GLA inh pH 4.5 | Rango-impB inh | structure
-29% | -2% | -5 | ? | O=C(COC(=O)Cc1ccc(S(=O)(=O)N2CCOCC2)s1)NCc1ccccc1
-3% | -3% | 3 | -0.3% | CC(C)(C)NC(=O)NC(=O)COC(=O)C1CC(=O)N(Cc2ccccc2)C1 (stereo unspecified)
-20% | -1% | -10 | 0.2% | O=C(OCc1nc2ccc(Cl)cc2n1CCO)c1ccccc1
1% | -52% | 0 | -1.5% | Cc1cccc(OCCN2C(=O)c3ccccc3C2=O)c1
-11% | -54% | / | 1.0% | COc1ccc(-c2nc(-c3ccncc3)no2)c(OC)c1
-2% | -31% | -5 | ? | O=C(CC(=O)c1ccccc1)Nc1cccnc1
8% | -5% | -2 | -2.2% | COC(=O)c1sc(N)c(C(=O)OC)c1COC(=O)CNS(=O)(=O)c1ccc(C)c(C)c1
1% | 0% | -1 | 0.1% | CCn1ccnc1CNC(=O)CC1C(=O)NCCN1Cc1ccccc1F (stereo unspecified)
10% | 0% | / | 1.5% | COCCC(=O)N1CCC(Oc2ccc(C(=O)NCc3ccon3)cc2)CC1
-7% | 0% | / | -0.3% | Cc1ccc(O)c(NC(=O)C2CC(c3cccc(Br)c3)=NO2)c1 (stereo unspecified)
11% | / | / | 5.4% | CCN(CC(=O)NCc1cccs1)C(=O)c1cccc(S(=O)(=O)NC)c1
11% | 1% | 4 | 0.1% | CCc1ccc(C(C)NC(=O)Cn2cnc3c(=O)n(C)c(=O)n(C)c32)cc1 (stereo unspecified)
-1% | 5% | -8 | -0.4% | CC(=O)N1N=C(c2c(-c3ccccc3)c3cc(C)ccc3[nH]c2=O)CC1c1ccco1 (stereo unspecified)
15% | -5% | -22 | -1.4% | CCCC(=O)Nc1ccc(Cl)c(NC(=O)c2cccnc2Cl)c1
9% | 6% | / | 0.2% | Cc1onc(-c2ccccc2)c1C(=O)N/N=C/c1ccc(O)c([N+](=O)[O-])c1
1% | -26% | -1 | -0.2% | O=C(O)CCC(=O)Nc1ccc(N=Nc2ccccc2)cc1
-9% | 3% | / | 2.6% | Nc1nc(SCC(=O)O)[nH]c(=O)c1NC(=O)c1ccco1
37% | -1% | 10 | -3.7% | COC(=O)C(CCSC)NC(=O)C12CC3CC(CC(C3)C1)C2 (stereo unspecified)
20% | -5% | / | 1.1% | Cc1cc(C)c(S(=O)(=O)c2cc(F)ccc2C)c(Cl)n1
-10% | / | -13 | ? | CC[C@@H]1C(c2cccc(C)c2)=NN(c2ccccc2)[C@H]1C(=O)N1CCOC1=O
-9% | -7% | / | 2.5% | COc1cccc(CNS(=O)(=O)c2cc3c(cc2C)NC(=O)CO3)c1
-5% | -67% | 0 | 6.1% | CCCn1c(C)cc(/C=C(\C#N)C(=O)OCC(=O)Nc2cc(OC)c(OC)c(OC)c2)c1C
11% | -28% | / | 3.7% | CC1CCC(NC(=O)CCNS(=O)(=O)c2ccccc2)CC1 (stereo unspecified)
? | -6% | -3 | ? | O=C(CN1C(=O)c2cccc3cccc1c23)Nc1ccccc1
-1% | -50% | / | 2.3% | COc1cc(CNC(=O)C2CC2)ccc1OCc1ccccc1
-13% | -5% | 1 | 3.2% | O=C(CN1C(=O)NC2(CCCc3ccccc32)C1=O)NCc1ccco1 (stereo unspecified)
-1% | -14% | -3 | -3.0% | O=C(NCc1ccccc1)c1ccc(CSc2ccccc2)o1
-7% | / | / | 0.9% | Cc1cccc(C)c1C(=NCCN(C)C)c1ccccc1
7% | -1% | / | 2.8% | CC(C)c1ccccc1NC(=O)CN1C(=O)c2ccccc2C1=O
20% | 0% | ? | -5.2% | O=C(CCCc1nc2ccccc2s1)NNC(=O)CCN1CCN(Cc2ccccc2)CC1
-12% | / | / | 2.1% | COc1ccc(S(=O)(=O)N2CCOCC2)cc1NC(=O)CSc1nnc(NC2CC2)s1
-18% | -10% | -13 | 0.4% | COc1ccc(/C=C/C(=O)Nc2cccc(C(C)=O)c2)cc1
1% | 0% | / | -0.7% | O=C(NC1CCCC1)c1ccc(Cl)c(S(=O)(=O)N2CCCCC2)c1
-2% | 0% | -1 | 4.1% | CCN(CC)c1ccc(NC(=O)COC(=O)c2ccc3ccccc3n2)cc1
12% | -2% | 8 | 0.6% | Cc1ccc(C)c(NC(=S)NC2CC3CCC(C2)N3Cc2ccco2)c1 (stereo unspecified)
8% | / | / | -0.4% | CC(C)(C)[C@H]1C=C(C(=O)NCc2ccccc2)O[C@@H](OCCCCO)C1
15% | 6% | / | 1.7% | Cc1cccc(N2CCN(C(=O)c3ccc4c(c3)NC(=O)C(CSCc3cccc(F)c3)N4)CC2C)c1 (stereo unspecified)
10% | -16% | / | -0.1% | O=C(COc1ccc(Br)cc1)N1CCNC1=O
? | 14% | 6 | 3.7% | Cc1ccccc1NS(=O)(=O)c1ccc2[nH]cc(C(=O)N(C)Cc3ccco3)c(=O)c2c1
-4% | 0% | -17 | 2.5% | CC(=O)NC(Cc1cccc(C)c1)C(=O)NC1CCN(c2ncccc2[N+](=O)[O-])CC1 (stereo unspecified)
-20% | / | / | -1.5% | CC1(NC(=O)Cc2c(Cl)cccc2Cl)CCS(=O)(=O)C1 (stereo unspecified)
-7% | / | / | -3.4% | CC(OC(=O)CCC(=O)c1cccs1)C(=O)NC1CCCCC1C (stereo unspecified)
-18% | -6% | -5 | -1.2% | CS(=O)(=O)N1CCC(C(=O)Nc2ccccc2F)CC1
-1% | / | / | -0.5% | CC(C)(C)N1C(=O)[C@H]2[C@@H](c3ccc(Br)cc3)N3C(=O)N(c4cccc(F)c4)C(=O)[C@@]3(Cc3ccccc3)[C@H]2C1=O
1% | / | / | -0.7% | O=C(Nc1nc(-c2cc(F)ccc2F)cs1)c1cccc(N2C(=O)CCC2=O)c1

The last two entries of the section before lead into the next.
Rango release inh | miR-21 reporter | GLA inh pH 4.5 | Rango-impB inh | structure
-1% | / | / | -0.5% | CC(C)(C)N1C(=O)[C@H]2[C@@H](c3ccc(Br)cc3)N3C(=O)N(c4cccc(F)c4)C(=O)[C@@]3(Cc3ccccc3)[C@H]2C1=O
1% | / | / | -0.7% | O=C(Nc1nc(-c2cc(F)ccc2F)cs1)c1cccc(N2C(=O)CCC2=O)c1
6% | 2% | / | ? | COc1ccc(CN2C(=O)c3cccnc3C2=O)cc1S(=O)(=O)N1CCCCC1
-20% | -7% | 4 | 4.4% | CCn1c(SCC(=O)NNC(=S)Nc2ccc(C)cc2)nnc1-c1ccc(Cl)cc1
-3% | -7% | -9 | 0.1% | COC(=O)c1ccccc1NC(=O)CSc1nc(N)cc(=O)[nH]1
5% | -1% | 8 | -5.9% | Cc1cccc(CN(C)CCc2ccccn2)c1
-8% | -3% | -2 | 0.7% | O=C1c2ccccc2C2(c3ccccc3)NCCN12 (stereo unspecified)
-5% | -63% | 4 | 1.1% | O=C(O)c1cccc(N/N=C/c2ccc(-c3ccccc3)cc2)c1
-2% | -4% | -7 | 4.0% | O=C(c1cnn(C(=O)COc2ccc(Cl)cc2)c1)c1ccccc1O
/ | -10% | -1 | / | CCn1c(=O)c(C(=O)Nc2ccsc2C(=O)OC)c(O)c2ccccc21
-1% | -19% | 6 | -2.2% | c1cncc(Nc2nc(-c3ccncc3)cs2)c1
? | -8% | / | ? | CC1C=CCC2C(=O)N(c3cccc(C(=O)NCc4ccccc4)c3)C(=O)C12 (stereo unspecified)
-4% | 0%&-6% | / | -0.6% | Cc1ccc(CNC(=O)CCS(=O)(=O)c2cc3c(cc2C)NC(=O)CO3)cc1
-8% | -8% | -13 | 2.9% | C/C(=N\NC(=O)CO/N=C(\C)c1cccs1)c1ccc(N)cc1
-18% | -7% | / | -0.7% | Cc1cccc(N(C(=O)c2snc(C(N)=O)c2N)C(C(=O)NC2CCCC2)c2ccco2)c1 (stereo unspecified)
-21% | 4% | -8 | -2.4% | COc1cccc(/C=N/NC(=O)c2ccoc2C)c1O
-11% | 0% | / | 0.9% | CCOc1ccccc1NC(=O)n1ncc2c(C)cccc21
16% | 5% | / | -1.5% | COc1ccc(C)cc1NC(=O)C(=O)c1cn(CC(=O)N2CCCC2)c2ccccc12
-6% | -9% | / | 0.1% | O=C(NN=C1CCCCCC1)c1ccc(Cl)s1
? | -2% | 2 | -3.4% | CCc1cccc2c(C=C(C#N)C#N)cn(CC(=O)N3CCCCC3)c12
2% | -4% | / | -0.1% | COc1ccc(CCNC(=O)COc2cc(O)c3c(c2)OC(C)(C)CC3=O)cc1OC
23% | 1% | -3 | -1.0% | Cc1[nH]c2ccccc2c1C1=CN2CCS(=O)(=O)N=C2S1
19% | -1% | / | 0.3% | COc1cc(NC(=O)Nn2cnnc2)cc(OC)c1OC
0% | / | / | -1.6% | COc1cccc(N2CCN(C(=O)c3cn(Cc4ccccc4)nc3-c3cccnc3)CC2)c1
-2% | -36% | -3 | -0.7% | CCN1CCN(Cc2ccc(OCc3ccccc3)cc2)CC1
1% | / | / | -1.5% | COc1ccc(NC(=O)N(C)C[C@H]2Oc3ccc(NC(=O)CCN4CCOCC4)cc3C(=O)N([C@H](C)CO)C[C@@H]2C)cc1
-1% | -8% | / | 0.6% | CCOc1ccc(N2C(=O)CC(C(C)c3ccccc3)C2=O)cc1 (stereo unspecified)
-4% | 10% | / | -3.9% | Cc1ccc(-n2nc3c(=O)n(CC(=O)NC(C)CCc4ccccc4)nc(C)c3c2C)cc1 (stereo unspecified)
-2% | -18% | 2 | -4.9% | O=C(CSc1nnc(SCc2cccc3ccccc23)s1)c1ccc2c(c1)OCO2
-11% | 1% | 0 | 1.4% | CCOC(=O)/C(=N\O)C1=NC(C)(C)Cc2ccccc21
-11% | -10% | 0 | -0.4% | CCOCC(O)CSCc1ccc(Cl)cc1 (stereo unspecified)
1% | 19% | 0 | -1.0% | Cc1nn(Cc2ccc(Cl)cc2)c(C)c1NC(=O)c1cc(-c2ccc3c(c2)OCO3)on1

Given as labelled records: entries from further up
CCc1cccc2c(C=C(C#N)C#N)cn(CC(=O)N3CCCCC3)c12
  Rango release inh: ?
  miR-21 reporter: -2%
  GLA inh pH 4.5: 2
  Rango-impB inh: -3.4%
COc1ccc(CCNC(=O)COc2cc(O)c3c(c2)OC(C)(C)CC3=O)cc1OC
  Rango release inh: 2%
  miR-21 reporter: -4%
  GLA inh pH 4.5: /
  Rango-impB inh: -0.1%

Only Rango release inh and Rango-impB inh, for some of the entries so far:
| Structure | Rango release inh | Rango-impB inh |
| --- | --- | --- |
| COc1ccc(CCNC(=O)COc2cc(O)c3c(c2)OC(C)(C)CC3=O)cc1OC | 2% | -0.1% |
| Cc1[nH]c2ccccc2c1C1=CN2CCS(=O)(=O)N=C2S1 | 23% | -1.0% |
| COc1cc(NC(=O)Nn2cnnc2)cc(OC)c1OC | 19% | 0.3% |
| COc1cccc(N2CCN(C(=O)c3cn(Cc4ccccc4)nc3-c3cccnc3)CC2)c1 | 0% | -1.6% |

Carrying on.
Rango release inh | miR-21 reporter | GLA inh pH 4.5 | Rango-impB inh | structure
? | -4% | -26 | ? | CCC(C)N1C(=O)/C(=C/c2c(NCCCOC(C)C)nc3c(C)cccn3c2=O)SC1=S (stereo unspecified)
-5% | 0% | / | ? | CCOc1ccc(NC(=O)CC2C(=O)NCCN2C(=O)Nc2ccccc2)cc1 (stereo unspecified)
4% | -5% | 5 | 0.5% | COc1ccc(NC(=O)C(C/C=C(/C)Cl)C(C)=O)cc1 (stereo unspecified)
-14% | -21% | -12 | -2.2% | Nc1ccc(Nc2ccc([N+](=O)[O-])cc2[N+](=O)[O-])cc1
-7% | 1% | / | 1.8% | Cc1ccc(N(CC(=O)NC2CCCC2)C(=O)CCC(=O)Nc2nccs2)cc1C
-10% | -3% | 3 | 0.2% | O=C(c1cnc(Cl)c(Cl)c1)N1CCC(Cc2ccccc2)CC1
-2% | 1% | -2 | -0.3% | C/C(=N\N1CCN(c2ccc(Cl)cc2)CC1)c1cccc([N+](=O)[O-])c1
-7% | -7% | 2 | -0.4% | CN(C)c1ccc(C(=S)N2CCN(c3ccc([N+](=O)[O-])cc3)CC2)cc1
19% | 1% | / | -8.6% | COc1ccc(CNC(=O)C2CC(C)=CCC2C(=O)O)cc1 (stereo unspecified)

Screening data (PubChem)
